High-throughput results (PubChem BioAssay)
HSV replic up = enhancers of HSV replication in host cells, fold increase, host cell viability | AID 1956, 2009 | actives 0.005% (n = 220,000) | maximum fold increase | HSV replication augmentation in cells;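 active = peak rise of 1.5-fold or more in the series; tested in PC3 cells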;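 also: first round at 10 µM; read as green reporter fluorescence; hits show the peak of a series up to 25 µM; 1 = signal of infected wells without compound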
PKD1 kinase inh = inhibitors of human PKD1 kinase, biochemical, fluorescence polarization. Serine/threonine-protein kinase D1 (Homo sapiens), Q15139. PKD1 kinase fluorescence polarization assay. inhibition, %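 (about 10 µM by stock and volumes)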. actives 0.056% (n = 200,000). AID 797, 2007;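 active = inhibition of 50% or more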;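 also: controls were vehicle for no effect and a reference inhibitor for full effect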
RGS16-Gao = modulators of RGS16 binding to Galphao, primary screen, biochemical, human proteins, multiplexed bead flow cytometry; Regulator of G-protein signaling 16 (Homo sapiens) + Guanine nucleotide-binding protein …; bead-based flow cytometry RGS16-Galphao binding, fluorescence; actives lie on both sides; binding response (% of control), % at 10 µM; actives 0.38% (n = 220,000); AID 1441, 2008;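 active = below 25% or above 175%, edge rows of some plates excepted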;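 also: Galphao activated by GDP with aluminum fluoride before binding; 100% = wells without compound and 0% = beads without RGS; some results beyond the cut were filed as inactive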
Target sequence (O15492 whole entry, looked up): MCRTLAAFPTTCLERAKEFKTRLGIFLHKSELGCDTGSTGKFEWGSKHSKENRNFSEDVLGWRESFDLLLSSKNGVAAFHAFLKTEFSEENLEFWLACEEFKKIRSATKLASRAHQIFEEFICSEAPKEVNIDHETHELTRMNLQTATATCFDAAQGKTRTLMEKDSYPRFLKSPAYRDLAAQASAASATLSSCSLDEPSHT
Target sequence (P09471 whole entry, looked up): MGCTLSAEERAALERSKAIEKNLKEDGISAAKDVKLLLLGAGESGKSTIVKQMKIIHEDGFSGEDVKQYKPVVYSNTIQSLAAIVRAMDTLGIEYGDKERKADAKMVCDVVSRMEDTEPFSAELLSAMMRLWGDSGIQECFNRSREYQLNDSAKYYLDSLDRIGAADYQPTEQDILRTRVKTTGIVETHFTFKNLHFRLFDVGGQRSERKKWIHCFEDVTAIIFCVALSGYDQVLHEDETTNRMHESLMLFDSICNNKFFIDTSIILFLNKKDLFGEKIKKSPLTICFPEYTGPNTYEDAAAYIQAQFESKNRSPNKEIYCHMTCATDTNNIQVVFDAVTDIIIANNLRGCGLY
INS promoter inh = inhibitors of insulin promoter-driven GFP, primary screen, imaging, TRM-6 cells (human fetal islet line), eGFP reporter, cell count | AID 1273, 2008 | reporter expression induced with tamoxifen | actives 0.9% (n = 130,000) | inhibition, % at 2 µM;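 active = inhibition above the mean plus 3 SD, with well images judged a real hit on visual review, cut at about 60% in these data, passing the limit was not always enough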
GALR2 agonist = GALR2 receptor agonists, primary screen, cell-based; Galanin receptor type 2 (Homo sapiens), O43603; GALR2-expressing cells, agonist activation read-out; activation, %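 (tested at 5 µM)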; actives 0.48% (n = 140,000);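 active = above mean plus 3 SD of all compounds, about 5% in these data, not always enough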;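 also: 0% = vehicle buffer wells and 100% = reference agonist at full effect; tested in CHO reporter cells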
Target sequence (O43603 whole entry, looked up): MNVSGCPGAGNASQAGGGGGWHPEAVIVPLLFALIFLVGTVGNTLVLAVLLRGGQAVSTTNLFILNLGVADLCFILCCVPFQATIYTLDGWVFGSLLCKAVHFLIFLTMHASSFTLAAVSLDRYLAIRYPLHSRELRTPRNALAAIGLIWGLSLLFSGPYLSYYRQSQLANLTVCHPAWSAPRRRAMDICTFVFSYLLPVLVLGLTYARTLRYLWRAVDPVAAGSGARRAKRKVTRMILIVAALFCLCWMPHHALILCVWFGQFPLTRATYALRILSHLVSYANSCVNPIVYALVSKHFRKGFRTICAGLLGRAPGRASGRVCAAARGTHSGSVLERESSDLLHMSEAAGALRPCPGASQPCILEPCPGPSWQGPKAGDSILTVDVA
INS promoter inh cell count = recorded beside INS promoter inh, whose call it bears; normalized cell count, %; measured here: cell count, toxicity; reference of the scale not given here;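 cells exposed to compound for 48 h; stained nuclei by imaging scaled within each plate; lower means fewer cells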
HSV replic up primary fold = further read-out of HSV replic up, marked with its call; fold increase; compound at 10 µM; measured here: primary screen fold increase 10 uM; tested in PC3 cells;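 GFP signal in the first replicate; 1 = infected wells without compound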
* marks the source's active call; other numbers are inactive results; i = inactive; / = not tested or not shown.

mol,HSV replic up,HSV replic up primary fold,PKD1 kinase inh,RGS16-Gao,INS promoter inh,INS promoter inh cell count,GALR2 agonist
Cc1nc2ccc(S(=O)(=O)Nc3cccc(-c4nc5cccnc5s4)c3)cc2s1,i,0.91,6,81,17,114,-1.7
COc1ccc(/C=N\NS(=O)(=O)c2ccc(C)cc2)cc1COc1ccccc1[N+](=O)[O-],i,0.9,2,107,10,103,-3.0
Cc1ccc(C)c(N2C(=O)CN=C2Nc2ccccc2Cl)c1,i,0.84,-4,105,70,65,-5.7
O=C(Cn1cncn1)N/N=C/c1ccccc1O,i,0.95,/,83,/,/,/
O=C1CCCC2=C1C(O)(C(F)(F)F)C(=O)N2Cc1ccccc1 (centres undefined),i,1,-10,122,58,77,-0.7
O=C(OCC(=O)N1CCCCCC1)c1ccc([N+](=O)[O-])cc1Cl,i,1,-5,98,/,/,/
Clc1ccccc1OCc1nn[nH]n1,i,0.88,/,103,/,/,/
CCN(CC)c1cc2nc(C)n(Cc3ccccc3)c(=O)c2cc1NC(=O)C1CC1,i,0.91,-8,45,85*,139*,-1.7
Cc1ccc(C)c(OCC(O)CN2CCC(CN3C(=O)c4cccc5cccc(c45)C3=O)CC2)c1 (centres undefined),i,0.61,-5,103,20,52,-1.1
CN(C(=O)c1cccc(C#N)c1)c1nnc(-c2cnccn2)s1,i,0.65,-10,103,40,145,-1.6
Cc1n[nH]c(C)c1S(=O)(=O)N1CCN(C2CCCCC2)CC1,i,0.96,4,97,-50,122,-0.6
Cc1cccc(N2N=C(C(=O)N3CC(=O)Nc4ccccc43)CCC2=O)c1,i,1,-8,107,23,78,/
O=C(CCc1ccccc1)Nc1ccccc1,i,0.98,-2,109,/,/,/
Nc1nc2ccccc2n1C(=O)c1ccc(F)cc1,i,0.98,-7,107,/,/,/
CC1(C(=O)N/N=C/c2ccc([N+](=O)[O-])o2)CC1(Br)Br (centres undefined),i,0.89,-9,13*,-94,76,-1.6
COCCNC(=O)C(C)Oc1ccc(Cl)cc1Cl (centres undefined),/,/,7,102,7,80,-0.4
Cc1ccc2[nH]c3c(=O)n(Cc4ccccn4)cnc3c2c1,i,0.96,1,105,18,202,0.0
Cc1ccc(C(=O)NCC(=O)OCC(=O)N2CCCc3ccccc32)cc1,i,0.99,-16,73,14,70,0.8
Cc1cc2ccccc2c(=O)n1CC(=O)NCC(=O)N1CCN(c2ccccc2)CC1,i,0.83,-12,97,-14,62,-1.4
O=C(Nc1ccc(Oc2cccnc2)cc1)c1ccc([N+](=O)[O-])cc1,i,1,-5,114,43,113,/
CCN(CC)S(=O)(=O)c1ccc(C)c(N=C=S)c1,i,0.99,0,81,29,54,/
COc1ccc(CNC(C)C2COc3ccccc3O2)c(OC)c1 (centres undefined),i,1,-19,105,/,/,-0.3
Clc1ccc(COc2ccccn2)c(Cl)c1,i,0.89,5,104,44,89,-0.4
COc1ccc(-c2csc(NC(=O)CSc3nc(C)cs3)n2)cc1,i,1.1,-1,103,58,71,-1.0
CCCc1c(-c2ccc(O)cc2)nn(-c2ccc(O)cc2)c1-c1ccc(O)cc1,i,0.89,/,79,/,/,/

The list goes on; it opens with the six that closed the last part.
mol,HSV replic up,HSV replic up primary fold,PKD1 kinase inh,RGS16-Gao,INS promoter inh,INS promoter inh cell count,GALR2 agonist
O=C(Nc1ccc(Oc2cccnc2)cc1)c1ccc([N+](=O)[O-])cc1,i,1,-5,114,43,113,/
CCN(CC)S(=O)(=O)c1ccc(C)c(N=C=S)c1,i,0.99,0,81,29,54,/
COc1ccc(CNC(C)C2COc3ccccc3O2)c(OC)c1 (centres undefined),i,1,-19,105,/,/,-0.3
Clc1ccc(COc2ccccn2)c(Cl)c1,i,0.89,5,104,44,89,-0.4
COc1ccc(-c2csc(NC(=O)CSc3nc(C)cs3)n2)cc1,i,1.1,-1,103,58,71,-1.0
CCCc1c(-c2ccc(O)cc2)nn(-c2ccc(O)cc2)c1-c1ccc(O)cc1,i,0.89,/,79,/,/,/
Cc1cc(C)n(CC(=O)N2CCCC(C(=O)c3cccc(OC(C)C)c3)C2)n1 (centres undefined),i,0.89,5,91,/,/,/
O=C(c1ccc(N2CCN(C3CC(=O)N(c4ccc(F)cc4)C3=O)CC2)cc1)c1cccnc1 (centres undefined),i,0.87,-5,107,10,87,-0.6
CC(C)OCCCNC(=O)C(C)Oc1ccccc1 (centres undefined),i,1.1,-2,97,-27,151,-1.1
Cc1ccc(-n2c(N)c(C#N)c(-c3ccccc3)c(C#N)c2=O)cc1,i,0.92,-12,101,-23,129,-2.1
O=C(COc1ncnc2ccc(Br)cc12)N1CCOCC1,i,1.2,3,97,/,/,-2.0
COc1ccccc1NC(=O)CSc1nc2ccccc2n1C(C)=O,i,0.85,-9,99,/,/,-2.6
CN1CCN(C(=O)c2ccc(CSc3ccc(Cl)cc3)cc2)CC1,i,1.1,-2,101,/,/,0.1
CCN(CCCNC(=O)CCCOc1cc(=O)n(C)c2ccccc12)Cc1ccccc1,i,0.99,-8,96,0,109,/
CCOc1ccc(N2CC(C(=O)NCCN3C(=O)S/C(=C\c4cccnc4)C3=O)CC2=O)cc1 (centres undefined),i,0.94,-3,90,/,/,/
O=C(O)c1cc2ccccc2c2cc(Br)ccc12,i,1.1,/,71,/,/,/
Cn1c(-c2cccc3ccccc23)n[nH]c1=S,i,0.95,-5,105,18,133,0.0
CCOC(=O)Cc1cc(OC)c(OC)cc1Cc1cc(OC)c(OC)cc1CC(=O)OCC,i,1.1,-8,107,/,/,-1.6
CCSc1nnc(NC(=O)c2cc(-c3ccc(C)c(C)c3O)n[nH]2)s1,i,0.97,-9,96,/,/,-2.3
CC(C)NC(=S)N1CCn2c(nc3ccccc32)C1,i,0.99,1,107,/,/,2.0
O=C(OCCCN=C1NS(=O)(=O)c2ccccc21)c1cccs1,i,0.95,-4,106,/,/,/
CC(C)C(=O)Nc1ccc(N2CCN(S(C)(=O)=O)CC2)cc1,i,0.78,-1,113,/,/,1.3
Cc1nnc(SC2CC(=O)N(c3ccccc3)C2=O)s1 (centres undefined),i,0.99,-7,97,/,/,-2.1
Cc1cc(NC(=O)CN2CCN(S(=O)(=O)c3ccc(Cl)cc3)CC2)no1,i,0.79,6,112,-11,87,-0.3
CCC(C)NC(=O)c1ccc(CSc2nc3ccncc3n2Cc2ccc(F)cc2)cc1 (centres undefined),i,0.99,2,99,-20,81,-0.3
Cc1ccc(NC(=O)C(C)N2C(=O)c3ccccc3C2=O)cc1S(=O)(=O)N1CCOCC1 (centres undefined),i,0.97,0,104,/,/,/
CCOc1ccccc1NC(=O)Nc1ccc(Br)cn1,i,0.92,-3,101,/,/,/
Cc1cc(NC(=O)c2ccco2)ccc1NC(=O)Cc1cccs1,i,0.99,7,100,38,80,-1.4
CN1C(=O)N(C)C2C1NC(=O)N2C (centres undefined),i,0.95,-4,101,/,/,-1.1
CCOC(=O)Nc1sc(C(=O)N(CC)CC)c(C)c1C(=O)OCC,i,0.87,-6,98,43,101,-0.8
CCC(=O)OCC(=O)Nc1cc(S(=O)(=O)N(C)C)ccc1Cl,i,1.1,1,98,/,/,/
COc1ccc(CNC(=O)Cn2ncn3c(cc4ccccc43)c2=O)cc1,i,1.1,/,91,/,/,/
CCCCCCC(=O)N(O)C1CC(=O)N(c2ccc(Cl)cc2)C1=O (centres undefined),i,1.1,/,100,/,/,/
CCNC(=S)N1CCCC(C(N)=O)C1 (centres undefined),i,0.91,-10,108,67,136,/
COc1cc(/C=N/Nc2ccc(Cl)cc2)ccc1OC(=O)c1cccs1,i,1.1,-10,105,-7,60,-1.0
Cc1ccc2c(c1)nnn2C1CCN(S(=O)(=O)c2cccc(S(=O)(=O)N(C)C)c2)CC1,i,0.9,3,102,-64,123,-1.1
Cn1c(=O)n(CCOc2ccccc2Cl)c2ccccc21,i,0.92,-10,56,/,/,-1.8
COc1ccc(C2Nc3ccccc3C(=O)N2c2ccc(C)cc2)cc1Cn1nc(C)c([N+](=O)[O-])c1C (centres undefined),i,0.66,2,99,-129,132,-0.8
Cc1ccc(OCC(=O)Nc2oc(-c3ccccc3)c(-c3ccccc3)c2C#N)cc1,i,1.1,0,/,16,270,-0.9
O=C(Cc1ccccc1)N1CCN(c2ncccn2)CC1,i,1.1,-5,99,11,152,/
Cc1ccc(-c2cc(C(=O)Nc3ccccc3C)c3ccccc3n2)o1,i,0.96,-3,53,-347,55,-2.6
COc1ccc(OCCOC(=O)c2nc3nccc(C)n3n2)cc1,i,0.94,2,93,/,/,/
COC(=O)c1ccc2c(=O)[nH]c(CCl)nc2c1,i,0.94,-3,104,/,/,/
COc1ccc(-c2ccc3c(N)c(C(=O)NC(C)C)sc3n2)cc1OC,i,0.97,/,97,/,/,/
CO/N=C(/CNC(=O)c1ccccc1Cl)c1ccc(Cl)cc1,/,/,-5,100,/,/,-4.4
CCOC(=O)/C(=N/Nc1ccc(OC)cc1)Sc1nnc(CCc2ccccc2)n1-c1ccccc1,i,1,8,101,/,/,-1.5
CNS(=O)(=O)c1ccc(NC(=O)C2CC(=O)N(c3ccc(Cl)cc3)C2)cc1 (centres undefined),i,0.92,1,108,/,/,/
CCCCN(Cc1ccccc1)C(=O)C1CCN(Cc2sccc2C)CC1,/,/,-2,84,25,113,-0.2
CC(C)C(=O)Nc1cccc(-c2nc3ccccc3c(=O)o2)c1,i,1.1,5,90,12,124,-2.1
COc1ccccc1CC(NC(C)=O)C(=O)N1CCN(C(=O)c2cccs2)CC1 (centres undefined),i,1,-6,35,-261,82,-1.5
COc1ccc(S(=O)(=O)NCc2ccc(C(=O)NCc3cccnc3)cc2)cc1,i,0.99,1,103,/,/,/
Cc1ccc(S(=O)(=O)N2CCOCC2)cc1NC(=O)COC(=O)c1ccc2c(c1)OCCO2,i,1,2,100,/,/,/

Not a retest: 2 of the compounds above.
mol,HSV replic up,HSV replic up primary fold,PKD1 kinase inh,RGS16-Gao,INS promoter inh,INS promoter inh cell count,GALR2 agonist
CCCCCCC(=O)N(O)C1CC(=O)N(c2ccc(Cl)cc2)C1=O (centres undefined),i,1.1,/,100,/,/,/
CCNC(=S)N1CCCC(C(N)=O)C1 (centres undefined),i,0.91,-10,108,67,136,/

Single records, as listed above. Order of screens: HSV replic up, HSV replic up primary fold, PKD1 kinase inh, RGS16-Gao, INS promoter inh, INS promoter inh cell count, GALR2 agonist
`CNS(=O)(=O)c1ccc(NC(=O)C2CC(=O)N(c3ccc(Cl)cc3)C2)cc1` (centres undefined) as listed: i, 0.92, 1, 108, /, /, /
`COc1ccc(S(=O)(=O)NCc2ccc(C(=O)NCc3cccnc3)cc2)cc1` as listed: i, 0.99, 1, 103, /, /, /
`COc1ccc(OCCOC(=O)c2nc3nccc(C)n3n2)cc1` as listed: i, 0.94, 2, 93, /, /, /
`CO/N=C(/CNC(=O)c1ccccc1Cl)c1ccc(Cl)cc1` as listed: /, /, -5, 100, /, /, -4.4
`CCNC(=S)N1CCCC(C(N)=O)C1` (centres undefined) as listed: i, 0.91, -10, 108, 67, 136, /
